# Compound activity: PubChem BioAssay, several laboratories
# E coli growth = E. coli growth inhibition, primary screen, OD600. Escherichia coli growth, 23 h; stronger effect = lower value. OD600 absorbance (test concentration not listed). 330,000 compounds, 0.21% hits;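 active = OD600 absorbance below the run mean of sample wells minus 3.6 SD, in any replicate, cut at about 0.56 in these data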;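 note: stock transfer was 300 nL into about 60 µL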
# UCH37 DUB inh = inhibitors of human UCH37 deubiquitinase, primary screen, biochemical, Ub-AMC cleavage, fluorescence; purified proteasome/UCH37; inhibition, % (no concentration beside the values); 330,000 compounds, 0.33% hits; AID 588478, 2011;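 active = mean of two replicates above 20%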;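 note: 0% = compound-free wells with enzyme and 100% = wells lacking proteasome; stock transfer was 100 nL into about 20 µL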
# Target sequence (Q9Y5K5 whole entry, looked up): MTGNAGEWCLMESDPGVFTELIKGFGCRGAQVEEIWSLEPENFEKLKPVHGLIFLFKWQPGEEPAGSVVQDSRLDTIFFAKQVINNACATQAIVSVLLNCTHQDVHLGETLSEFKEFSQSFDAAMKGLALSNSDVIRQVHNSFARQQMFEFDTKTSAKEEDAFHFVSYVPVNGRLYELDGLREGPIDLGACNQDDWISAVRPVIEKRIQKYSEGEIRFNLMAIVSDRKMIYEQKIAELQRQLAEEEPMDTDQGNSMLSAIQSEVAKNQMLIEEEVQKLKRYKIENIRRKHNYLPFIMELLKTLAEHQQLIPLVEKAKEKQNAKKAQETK
#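 Signal – fluorescence, ex 355 nm, em 460 nm · System – Proteasome-bound UCH37 · Input – 0.15 nM proteasome as dispensed · Timing – 30 min preincubation with enzyme, 25 min cleavage at room temperature · Read-out basis – percent inhibition of cleavage signal versus uninhibited and no-proteasome wells · Medium – Tris-HCl pH 7.4 with ATP-MgCl2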
# HNF4A DNA FP = change in binding of human HNF4A to DNA, primary screen, biochemical, fluorescence polarization, FITC-DNA. 1 h. 360,000 compounds, 0.3% hits. AID 1224865, 2016. activity change, % at 10 µM; in the data active = activity change above about 30%, passing the limit was not always enough;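 note: controls were the assay level and a saturating level of protein; the project sought stronger binding though the title names inhibitors; some compounds called inactive have numbers as strong as hits; positive values seem to mean higher polarization but the record does not say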
# Target sequence (P41235 whole entry, looked up): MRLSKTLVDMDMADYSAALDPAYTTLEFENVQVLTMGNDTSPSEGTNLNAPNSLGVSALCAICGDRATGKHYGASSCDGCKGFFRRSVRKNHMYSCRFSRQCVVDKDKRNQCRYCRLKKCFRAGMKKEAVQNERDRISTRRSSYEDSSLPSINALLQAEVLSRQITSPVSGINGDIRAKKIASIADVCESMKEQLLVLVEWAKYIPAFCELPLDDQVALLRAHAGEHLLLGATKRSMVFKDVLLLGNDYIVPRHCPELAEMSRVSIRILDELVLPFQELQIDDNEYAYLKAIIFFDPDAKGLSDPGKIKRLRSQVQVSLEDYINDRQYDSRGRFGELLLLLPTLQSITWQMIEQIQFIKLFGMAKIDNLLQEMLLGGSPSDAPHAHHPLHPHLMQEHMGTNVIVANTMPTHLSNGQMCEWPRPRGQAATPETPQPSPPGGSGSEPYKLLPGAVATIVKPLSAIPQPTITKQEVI
# An asterisk follows results filed as active; x = no result given. The list is partial; count on the stated rates, not on these rows.
# Values run as follows: UCH37 DUB inh	HNF4A DNA FP	E coli growth
- COCCNC(=O)C1CCCN(Cc2ccccc2-c2ccccc2)CC1 (stereo unspecified)
  x	-2.3	x
- COc1ccc(C(=O)OCC(=O)c2ccco2)cc1[N+](=O)[O-]
  x	-2.4	x
- CCNC(=O)C1(C)CCCN(CCOc2ccc(Cl)cc2)C1 (stereo unspecified)
  x	-2.3	x
- CCCCC(=O)N(C)c1c(CC)nc2c(OCC=C(C)C)cccn12
  x	3.7	x
- O=C(OCC(=O)N1CCCCCC1)c1cccc(Cl)c1Cl
  x	2.5	x
- COc1ccc(C2CC(c3cccc([N+](=O)[O-])c3)=NN2/C(C)=C/C(C)=O)cc1 (stereo unspecified)
  x	87.1*	x
- Cc1ccc(OCc2nnn(CC(=O)NS(=O)(=O)c3c(C)noc3C)c2-c2ccccc2)cc1
  x	-0.7	x
- CCCCCCCCCC1NC(C(=O)O)Cc2c1[nH]c1ccccc21 (stereo unspecified)
  x	0.9	x
- Clc1cccc(-c2nc3ccc(Cl)cn3c2Cc2ccsc2)c1
  x	-4.2	x
- CN(CCC#N)c1ccc(C=C(C#N)c2cccc(C(F)(F)F)c2)cc1
  x	8.8	x
- CCC(c1ccccc1)c1noc(CCN(CC)CC)n1 (stereo unspecified)
  x	-0.3	x
- COc1ccc(S(=O)(=O)N2CCC(C(=O)NCCc3ccc(OC)c(OC)c3)CC2)cc1
  x	-1.3	x
- CCN(CC)CCCC(C)n1c(C)cc(C(=O)NS(=O)(=O)c2ccc(C)cc2)c1C (stereo unspecified)
  x	0.5	x
- Cc1ccc(-c2cnc(C(O)c3cccc(Cl)c3)[nH]2)cc1 (stereo unspecified)
  x	0.3	x
- COc1cc(NS(=O)(=O)c2ccc(-n3cccn3)cc2)cc(OC)c1
  x	-0.6	x
- NC(CSCc1ccccc1)C(=O)Nc1ccc([N+](=O)[O-])cc1 (stereo unspecified)
  x	5.5	x
- Cc1nc2c(OCc3cccc(Cl)c3)cccn2c1N(C)CC1CC1
  x	-2.0	x
- O=S(=O)(Nc1ccc(C(O)(C(F)(F)F)C(F)(F)F)cc1)c1ccc(Cl)c2nonc12
  x	1.9	x
- Nc1nc2ccc(Cl)cc2cc1C(=O)NCCc1c[nH]c2ccccc12
  x	-0.6	x
- Cc1cc2c(Nc3ccccc3O)ncnc2s1
  x	1.4	x
- Fc1ccc(-c2nc3ccc(Br)cn3c2Cc2ccsc2)cc1
  x	2.5	x
- CCOc1ccc(OCCC(=O)Nc2ccc(N3CCOCC3)cc2N2CCOCC2)cc1
  x	-2.0	x
- N#CC1=C(Nc2ccccc2Cl)SC2(CCCC2)NC1=O
  x	4.8	x
- CCCCN1CC(C)(C)[C@H](CC(=O)Nc2ccc(Br)cc2)C1=O
  x	-0.3	x
- Cc1ccc2nc(-c3ccco3)c(CC3CCCCC3)n2c1
  x	13.0	x
- CCCS(=O)(=O)NC(=O)C1(C)CCN(C(=O)c2ccc(OC)cc2)C1 (stereo unspecified)
  x	1.1	x
- COc1cccc(-c2cccc(-c3nc(C(=O)NCc4ccc(Oc5ccccc5)cc4)cc4c3[C@H](CCO)N(S(=O)C(C)(C)C)C4)c2)c1 (stereo partly specified)
  x	18.1	x
- O=C1NC(=O)C2(CCCc3ccc([N+](=O)[O-])cc32)N1 (stereo unspecified)
  x	0.8	x
- O=C(O)c1c(-c2ccccc2)cnc2ccccc12
  x	0.8	x
- CC(O)(c1cccc(F)c1)c1nc(-c2cncnc2)cs1 (stereo unspecified)
  x	2.7	x

# Five records drawn at random from those above, as already listed:
# Values run as follows: UCH37 DUB inh	HNF4A DNA FP	E coli growth
- Cc1ccc2nc(-c3ccco3)c(CC3CCCCC3)n2c1
  x	13.0	x
- COc1cc(NS(=O)(=O)c2ccc(-n3cccn3)cc2)cc(OC)c1
  x	-0.6	x
- N#CC1=C(Nc2ccccc2Cl)SC2(CCCC2)NC1=O
  x	4.8	x
- Fc1ccc(-c2nc3ccc(Br)cn3c2Cc2ccsc2)cc1
  x	2.5	x
- CCC(c1ccccc1)c1noc(CCN(CC)CC)n1 (stereo unspecified)
  x	-0.3	x

# Continuation.
# Values run as follows: UCH37 DUB inh	HNF4A DNA FP	E coli growth
- COc1ccc(C(C)NC(=O)C2CCN(CCOc3ccc(Cl)cc3Cl)CC2)cc1OC (stereo unspecified)
  x	-3.6	x
- COc1ccccc1Cc1c(-c2ccco2)nc2c(C)cc(Br)cn12
  x	-7.0	x
- CCn1c2ccccc2c2cc(NC(=O)N3CCCCC3)ccc21
  x	0.2	x
- C#CCN(C[C@@H]1[C@@H](OC(=O)NCC2CCCCC2)[C@@H](OC(=O)NCC2CCCCC2)Cn2c(=O)n(CCCCCC)c(=O)n21)S(=O)(=O)c1ccc(C)cc1
  x	3.4	x
- O=S1(=O)CCN(CCCc2ccccc2)CC1
  x	-0.5	x
- O=C(CSc1ccccc1F)NC(=O)NC1CCCC1
  x	0.6	x
- Nc1nc2ccc(Cl)cc2cc1C(=O)NCc1ccc(Oc2ccccc2)cc1
  x	4.1	x
- COc1ccc(N2CCN(CC(=O)Nc3ccccc3C(=O)NC(C)c3ccccc3)CC2)cc1 (stereo unspecified)
  x	1.3	x
- O=C1NN=C2CCCCCCCCCCC12 (stereo unspecified)
  x	-0.6	x
- CC(C)(C)NC(=O)C1(C)CCC(=O)N1CCCn1ccnc1 (stereo unspecified)
  x	-0.8	x
- COc1cccc(C(N)c2nc(-c3csc4ccccc34)cs2)c1 (stereo unspecified)
  x	0.1	x
- CC(C)OCCc1cccc[n+]1[O-]
  x	-0.9	x
- COc1ccc(-c2cc3nc(-c4ccccc4)cc(N4CCN(C(=O)c5ccsc5)CC4)n3n2)cc1
  x	-4.0	x
- Cc1ccc(C2C=CC(C#N)=CN2Cc2ccccc2)cc1 (stereo unspecified)
  x	25.1	x
- CCn1c(O)c(N=NC(=O)CNC(=O)c2cccnc2)c2ccccc21
  x	2.6	x
- COc1ccc(C(CNC(=O)c2ccc(OCc3cscn3)cc2)N2CCCC2)cc1 (stereo unspecified)
  x	2.0	x
- C/C(C=NNC(=O)CSc1nc2ccccc2n1C)=C\c1ccco1
  8.5	x	0.704
- COc1cc(C=NNC(=O)CN2CCCCC2)ccc1OCc1ccccc1
  2.9	x	0.598
- COc1cc(C=NNC(=O)c2cccnc2)ccc1OS(=O)(=O)c1cc(C)ccc1C
  2.4	x	0.721
- CCN1CCN(CC(=O)NN=Cc2cc(Br)cs2)CC1
  3.7	x	0.676
- CN(C)CCCNCCCNC(=O)C=NO
  -2.2	x	0.71
- COc1ccc(C=NNc2ccc(C(F)(F)F)cc2[N+](=O)[O-])cc1O
  6.4	x	0.733
- O=C(CCCCCNC(=O)c1ccccc1)NN=Cc1ccccc1
  4.5	x	0.707
- CN(N=Cc1ccc(C(C)(C)C)cc1)C1=NCCN1
  0.4	x	0.709
- COC(=O)c1ccc(Cl)c(-c2ccc(C=NNC(=O)Nc3ccccc3)o2)c1
  -4.3	x	0.711
- COc1ccc(C(C)=NNC(=O)c2ccc(CSc3cccc4cccnc34)cc2)cc1OC
  -18.6	x	0.678
- Cc1ccc(C=NNC(=O)c2c(-c3ccccc3)noc2C)o1
  6.7	x	0.668
- CN(C)Cc1c(C(=O)NN=Cc2cccc3ccccc23)nnn1-c1nonc1N
  1.4	x	0.659
- COc1cc(C=Nn2c(C)nc3ccccc3c2=O)cc(OC)c1O
  6.9	x	0.668
- CCCOc1ccc(C=NNC(=O)C2CC2)c(OCCC)c1
  6.5	x	0.715

# Shown in CSV form: part of the list above.
SMILES,UCH37 DUB inh,HNF4A DNA FP,E coli growth
CCN1CCN(CC(=O)NN=Cc2cc(Br)cs2)CC1,3.7,x,0.676
CCn1c2ccccc2c2cc(NC(=O)N3CCCCC3)ccc21,x,0.2,x

# Further records
# Values run as follows: UCH37 DUB inh	HNF4A DNA FP	E coli growth
- Oc1ccc(C=NNC2=NCCCCC2)cc1
  -2.7	x	0.697
- Cc1ccc(NS(=O)(=O)c2cccc(C(=O)NN=Cc3ccc4c(c3)OCCO4)c2)c(C)c1
  -11.5	x	0.712
- CC(CS(=O)(=O)c1ccc(Cl)cc1)=NNC(N)=S
  0.2	x	0.694
- O=C(Cc1ccccc1)NN=Cc1ccc2c(c1)OCO2
  2.4	x	0.688
- Cc1ccsc1C=NNc1cccc(C(=O)O)c1
  9.2	x	0.642
- Nn1cnnc1NN=Cc1ccc(Cl)c([N+](=O)[O-])c1
  9.6	x	0.653
- O=C1Nc2ccc(Br)cc2C1=NN=CC1=C(N2CCOCC2)/C(=C\c2ccccc2)CC1
  4.2	x	0.849
- Cc1cc(C)c2c(=O)n(CC(=O)N3CCC(Cc4ccccc4)CC3)sc2n1
  5.2	x	0.786
- COc1cc(C=NNC(=O)c2ccncc2)ccc1OC(=O)c1ccccc1Cl
  4.2	x	0.74
- O=C(CN1CCOCC1)NN=Cc1ccc(C(=O)O)cc1
  -0.6	x	0.7
- Cc1ccccc1OCc1nc2ccccc2c(=O)n1N=Cc1cccc([N+](=O)[O-])c1
  1.5	x	0.741
- COc1ccc(OC)c(C=NNC(=O)c2[nH]ncc2Br)c1
  -195.8	x	0.691
- O=C(COc1cccc(Br)c1)NN=CC(=O)c1ccccc1
  1.1	x	0.638
- Fc1ccc(NN=C/C=C/c2ccccc2)c(F)c1
  1.0	x	0.669
- COc1cccc(C=NNC(=O)C(=O)Nc2ccccc2OC(F)(F)C(F)F)c1
  -35.5	x	0.727
- CC(=NN1C(=O)CSC1=S)c1ccc(Br)cc1
  3.3	x	0.688
- O=C(NN=Cc1ccccc1)c1ccc(CN2C(=O)c3cccc4cccc2c34)cc1
  -52.6	x	0.682
- CC(=NNC(=O)c1ccncc1)c1ccc(N(C)C)cc1
  17.0	x	0.676
- O=C(COc1ccc(C=NNC(=O)c2ccccc2)cc1)Nc1ccc([N+](=O)[O-])cc1
  3.5	x	0.672
- CC(=O)NN=Cc1ccccc1OCCOc1cccc(C)c1
  5.7	x	0.682
- COc1cc(C=NNC(=O)C(=O)NCc2cccnc2)cc(OC)c1OC
  5.4	x	0.652
- O=C(NN=Cc1ccc(O)cc1)c1csc2c1CCCC2
  -0.9	x	0.697
- Cc1cccc(C=NNC(=O)c2ccccc2-n2cccc2)c1
  2.2	x	0.681
- O=S1(=O)N=C(NN=Cc2cccs2)c2ccccc21
  13.9	x	0.705
- Cc1ccc(C(=O)NN=Cc2ccc(Br)o2)o1
  9.8	x	0.674
- CCOc1cc(C=NNC(=O)c2ccc(CN3CCOCC3)cc2)ccc1OC
  6.2	x	0.699
- CC(=NNC(=O)c1cc(-c2ccc(Br)s2)[nH]n1)c1ccco1
  4.5	x	0.648
- Cc1[nH]n(-c2ccc(F)cc2)c(=O)c1C=Nc1sc2c(c1C#N)CCCC2
  0.9	x	0.737
- CCCCCC1CC(C(C)=NNC(N)=O)OC1=O (stereo unspecified)
  -3.7	x	0.761
- O=C(NN=C/C=C\c1ccccc1[N+](=O)[O-])c1cc(-c2ccccc2)nc2ccccc12
  5.6	x	0.737
- COc1ccccc1-c1cc(C(=O)NN=Cc2ccc(C)s2)c2ccccc2n1
  4.3	x	0.75
- CCNC(=O)ON=C(C)c1sc(-c2ccc(Cl)cc2)nc1C
  0.1	x	0.767
- O=C(NN=Cc1cc(Br)ccc1O)C(c1ccncc1)N1CCOCC1 (stereo unspecified)
  -50.6	x	0.648
- CON=CC(=NNc1ccc(C)cc1)C(=O)c1ccc(OC)cc1
  3.9	x	0.697
- Cc1ccc(S(=O)(=O)N(C)CC(=O)NN=Cc2ccc(C)o2)cc1
  3.0	x	0.696
- NC(=S)NN=C/C=C/c1ccccc1
  12.7	x	0.682
- CS(=O)(=O)N(CC(=O)NN=Cc1cc2c(cc1Br)OCO2)c1ccccc1Br
  4.5	x	0.704
- CCOc1cc(C=NNc2nnc(C)n2N)ccc1OC(C)=O
  3.7	x	0.657
- Cc1cc(-c2ccccc2)n(-c2cc(NN=Cc3ccccc3O)ncn2)n1
  1.4	x	0.708
- O=C(CNC(=O)c1ccccn1)NN=Cc1ccccc1
  2.6	x	0.696
- CC(=NNc1ccc([N+](=O)[O-])cc1[N+](=O)[O-])C(C)(C)C(C(=O)O)C(=O)O
  16.6	x	0.671
- COC(=O)c1ccc(C=NNC(=O)C2CC(=O)N(c3ccc(OC)cc3)C2)cc1 (stereo unspecified)
  1.9	x	0.77
- COc1ccc(NS(=O)(=O)c2cccc(C(=O)NN=Cc3cccs3)c2)cc1
  6.3	x	0.682
- Cc1cc[n+](-c2[nH]c(=O)sc2C=N/N=C(\[O-])c2ccccc2)cc1C
  10.4	x	0.651
- COc1ccccc1OCC(=O)NN=C1CCCCc2ccccc21
  3.4	x	0.677
- CC(=NOCC(=O)OCC(=O)Nc1cc(S(C)(=O)=O)ccc1Cl)c1ccc2c(c1)OCO2
  4.0	x	0.693
- COc1ccc(OC)c(C=NNC(=O)CSc2nnc(C)n2-c2ccccc2)c1
  -33.8	x	0.748
- C=CCN1C(=O)C(Cc2ccc(OC)cc2)SC1=NN=Cc1cccs1 (stereo unspecified)
  -4.2	x	0.73
- O=C(C[n+]1ccccc1)NN=Cc1cccc(Cl)c1Cl
  7.8	x	0.666
